# Compound activity (PubChem)
# YB-1 expression: YB-1 expression inhibition. delta delta Cp (YB-1 minus CDIP) (no concentration beside the values). U2OS, qRT-PCR YB-1 vs CDIP delta delta Cp, 16 h; hits give high values; zero = DMSO, each unit about twofold. 0.37% of 30,000 active;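 active means delta delta Cp rounded down to an integer at or above 3, about 3 SD of DMSO wells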;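 further: higher means less YB-1 transcript or more CDIP transcript relative to DMSO; stock transfer was 100 nL into about 100 µL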
# Hedgehog inh: Sonic Hedgehog pathway inhibition; Shh-LIGHT2 Gli-luciferase reporter, 30 h; inhibition, % (no concentration beside the values); 2.1% of 22,000 active;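 active means replicate mean of 65% or more; inconclusive means mean lower but half the replicates past it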;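 further: pathway switched on by Shh-conditioned medium diluted 1 in 25 in low serum; 100 nL library stock added to about 40 µL; 0% = median of neutral wells and 100% = positive control level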
# MITF inhib: blocks MITF activity. inhibition, % (concentration not given with the values). TRPM1 promoter luciferase, luminescence, 24 h. 0.28% of 37,000 active;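 active means most replicates at 85% or more, or half of them and the mean; inconclusive means half reach 85% but not the mean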;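 further: human melanocyte line stably carrying TRPM1 promoter luciferase reporter; 0% = vehicle wells and 100% = a positive control; the first replicate is given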
# PD-1 reversal: reversal of PD-1 mediated T-cell inhibition; primary human CD4 T cells, PD-L1 beads, CellTiter-Glo 96 h; activation, % (no concentration beside the values); 29,000 tested, under 10 active; AID 2316;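 active means replicate mean of 50% or more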;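 further: 0% = median vehicle wells and 100% = positive control; 100 nL library stock added to about 50 µL; numbers are from one replicate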
# An asterisk follows results filed as active; ? = inconclusive; nt = no result given.
# Sample of the layout (2 entries):
SMILES	PD-1 reversal	YB-1 expression	Hedgehog inh	MITF inhib
Cc1noc(C)c1NC(=O)N(C)C[C@H]1Oc2c(NC(=O)Nc3ccccc3)cccc2C(=O)N([C@@H](C)CO)C[C@@H]1C	2.3	-0.16	-27	-1
Cc1nn(C)c(C)c1CNC(=O)c1cnn2c1NC(c1ccc(Br)cc1)CC2C(F)(F)F (stereo not drawn)	0.0	nt	nt	16

# The listing, repeating the preview:
SMILES	PD-1 reversal	YB-1 expression	Hedgehog inh	MITF inhib
Cc1noc(C)c1NC(=O)N(C)C[C@H]1Oc2c(NC(=O)Nc3ccccc3)cccc2C(=O)N([C@@H](C)CO)C[C@@H]1C	2.3	-0.16	-27	-1
Cc1nn(C)c(C)c1CNC(=O)c1cnn2c1NC(c1ccc(Br)cc1)CC2C(F)(F)F (stereo not drawn)	0.0	nt	nt	16
COc1ccc(S(=O)(=O)N(C)CC(=O)Nc2cccc(C)c2C)cc1Cl	-0.8	nt	nt	1
Clc1ccc(Cn2c(CN3CCCC3)nc3ccccc32)cc1	nt	-0.0088	-11	10
COc1ccc(S(=O)(=O)Nc2cccc3c2O[C@@H](CN(C)S(=O)(=O)c2c(C)noc2C)[C@@H](C)CN([C@H](C)CO)C3=O)cc1	-1.4	-0.23	25	1
C[C@H](CO)N1C[C@H](C)[C@H](CN(C)CC2CC2)Oc2c(NS(C)(=O)=O)cccc2C1=O	1.4	-0.69	16	-8
Cc1cc(=O)[nH]c(SCCOc2ccc(F)cc2)n1	3.2	nt	nt	-96
OC1(c2ccc(Cl)cc2)CCN(Cc2c[nH]c3ccccc23)CC1	nt	0.044	?	-23
C[C@H]1CN([C@@H](C)CO)C(=O)Cc2cc(NC(=O)NC3CCCCC3)ccc2O[C@@H]1CN(C)Cc1ccc(Oc2ccccc2)cc1	-1.7	0.08	40	33
C[C@H]1CN([C@@H](C)CO)C(=O)c2cccc(N(C)C)c2O[C@@H]1CN(C)C(=O)Nc1ccc(F)cc1	nt	-0.13	-2	0

# (more compounds)
SMILES	PD-1 reversal	YB-1 expression	Hedgehog inh	MITF inhib
Cc1ccc2ccc(C(Nc3ccccn3)c3cccc([N+](=O)[O-])c3)c(O)c2n1 (stereo not drawn)	-13	nt	nt	52
C[C@H](CO)N1C[C@H](C)[C@H](CN(C)Cc2ccc3c(c2)OCO3)Oc2ccc(NS(=O)(=O)c3ccc(F)cc3)cc2CC1=O	1.1	0.28	11	-10
CC(C)NC(=O)Nc1ccc2c(c1)CC(=O)N([C@@H](C)CO)C[C@H](C)[C@@H](CN(C)S(=O)(=O)c1ccc(F)cc1)O2	0.1	0.027	nt	-14
Cc1ccc(S(=O)(=O)Nc2ccc3c(c2)CC(=O)N([C@H](C)CO)C[C@H](C)[C@H](CN(C)S(=O)(=O)c2c(C)noc2C)O3)cc1	nt	-0.4	?	-10
C[C@H](CO)N1C[C@H](C)[C@H](CN(C)C)Oc2ccc(NC(=O)c3ccncc3)cc2CC1=O	nt	-0.42	-42	-14
COC(=O)c1cc(OC)c(OC)cc1NC(=O)C(C)Oc1ccc(Br)cc1 (stereo not drawn)	-1.2	nt	nt	65
C[C@@H]1CN([C@@H](C)CO)C(=O)Cc2cc(NC(=O)CCN3CCOCC3)ccc2O[C@@H]1CN(C)S(=O)(=O)c1ccc(Cl)cc1	-0.8	0.24	-7	-6
Cc1ccc(S(=O)(=O)Nc2ccc3c(c2)C(=O)N([C@H](C)CO)C[C@H](C)[C@@H](CN(C)C(=O)NC(C)C)O3)cc1	nt	-0.19	-3	-5
C[C@@H]1CN([C@H](C)CO)C(=O)c2cc(NS(C)(=O)=O)ccc2O[C@H]1CN(C)Cc1ccc(-c2ccccc2)cc1	-0.7	0.47	nt	2
C[C@H](CO)N1C[C@H](C)[C@@H](CN(C)CC2CCCCC2)Oc2c(NS(=O)(=O)c3cccs3)cccc2C1=O	0.0	-0.18	-11	-18

# (list continues)
SMILES	PD-1 reversal	YB-1 expression	Hedgehog inh	MITF inhib
O=C(CCn1cnc2ccccc2c1=O)Nc1ccccc1F	0.2	nt	nt	-19
Cc1noc(C)c1S(=O)(=O)N(C)C[C@@H]1Oc2ccc(NC(=O)C3CCCCC3)cc2CC(=O)N([C@H](C)CO)C[C@@H]1C	nt	-0.27	-4	-15
Cn1c(SCc2nc3ccccc3s2)nnc1-c1cccnc1	0.0	nt	nt	10
CSc1ccccc1NC(=O)C(C)n1nc([N+](=O)[O-])c(Br)c1C (stereo not drawn)	-1.8	nt	nt	16
CN(Cc1cc(Br)cc(Br)c1N)C1CCCCC1	nt	-0.082	-38	13
COc1ccc(S(=O)(=O)N(C)C[C@@H]2Oc3c(NC(=O)c4ccncc4)cccc3C(=O)N([C@H](C)CO)C[C@@H]2C)cc1	-1.3	-0.15	-13	-31
C[C@@H]1CN([C@H](C)CO)C(=O)Cc2cc(NC(=O)Nc3cccc4ccccc34)ccc2O[C@H]1CN(C)C(=O)Nc1ccc(C(F)(F)F)cc1	nt	0.11	0	16
Cc1ccc(S(=O)(=O)Nc2ccc3c(c2)CC(=O)N([C@H](C)CO)C[C@H](C)[C@H](CN(C)CC2CC2)O3)cc1	3.2	0.51	48	-7
CCOC(=O)c1cnc2oc3ccc(O)cc3c2c1-c1ccccc1	1.2	0.11	-12	20
Cc1ccc(Cn2nc(C(=O)Sc3cccc(Cl)c3Cl)cc2C)cc1	-3.4	0.014	-38	6

# Following part:
SMILES	PD-1 reversal	YB-1 expression	Hedgehog inh	MITF inhib
Cc1ccccc1-c1nnc(SCC(=O)Nc2cc(C(F)(F)F)ccc2N2CCOCC2)o1	-0.1	nt	nt	-1
COc1ccc(CN(C)C[C@H]2Oc3ccc(NS(=O)(=O)c4cn(C)cn4)cc3C(=O)N([C@@H](C)CO)C[C@@H]2C)cc1	0.8	0.035	-16	6
CC(C)c1cc(Br)ccc1NC(=O)CSc1n[nH]c(-c2ccc(Cl)cc2)n1	-3.3	nt	nt	29
Cc1noc(C)c1S(=O)(=O)Nc1ccc2c(c1)CC(=O)N([C@H](C)CO)C[C@H](C)[C@H](CN(C)Cc1ccc(Oc3ccccc3)cc1)O2	-0.2	-0.72	nt	9
C[C@@H]1CN([C@@H](C)CO)C(=O)c2cc(NC(=O)Nc3ccc4c(c3)OCO4)ccc2O[C@H]1CN(C)S(=O)(=O)c1ccccc1	nt	0.22	-20	-38
C[C@@H]1CN([C@H](C)CO)C(=O)c2cccc(N(C)C)c2O[C@H]1CN(C)S(=O)(=O)c1ccc(F)cc1	nt	0.019	-8	-10
C[C@@H]1CN([C@H](C)CO)C(=O)Cc2cc(NS(=O)(=O)c3ccccc3)ccc2O[C@@H]1CN(C)Cc1ccc(Cl)c(Cl)c1	-7.3	0.32	?	4
CC(=O)Oc1ccc(N(C(C)=O)S(=O)(=O)c2ccc3ccccc3c2)cc1	0.4	0.44	31	13
C[C@H]1CN([C@@H](C)CO)C(=O)c2cc(NC(=O)Cc3cn(C)c4ccccc34)ccc2O[C@H]1CN(C)CC1CC1	nt	-0.11	nt	8
CCO/C([O-])=N\c1c[n+](N2CCOCC2)no1	0.7	0.56	-41	-30

# New compounds follow:
SMILES	PD-1 reversal	YB-1 expression	Hedgehog inh	MITF inhib
C[C@@H]1CCCCO[C@H](CN(C)C(=O)Nc2ccc3c(c2)OCO3)[C@@H](C)CN([C@H](C)CO)C(=O)c2cc(NC(=O)c3ccccc3)ccc2O1	nt	-0.15	4	-6
COc1ccc(NC(=O)N(C)C[C@@H]2Oc3ccc(NC(=O)CCN4CCOCC4)cc3CC(=O)N([C@@H](C)CO)C[C@@H]2C)cc1	0.6	0.58	-1	2
CNC[C@H]1Oc2c(NS(=O)(=O)c3ccc(OC)cc3)cccc2C(=O)N([C@@H](C)CO)C[C@@H]1C	3.2	0.096	-11	-8
C[C@H](CO)N1C[C@H](C)[C@@H](CN(C)S(=O)(=O)c2ccc(F)cc2)Oc2c(NS(=O)(=O)c3ccc(Cl)cc3)cccc2C1=O	0.5	0.26	35	4
C[C@@H]1CN([C@H](C)CO)C(=O)c2cc(NC(=O)Cn3cnnn3)ccc2O[C@H]1CN(C)S(=O)(=O)c1cn(C)cn1	1.4	0.24	nt	0
C[C@@H]1CN([C@@H](C)CO)C(=O)Cc2cc(NS(=O)(=O)c3ccc(F)cc3)ccc2O[C@@H]1CN(C)Cc1ccc(Cl)c(Cl)c1	nt	0.015	18	3
CCOC(=O)CSc1nnc(Cn2nnc3ccccc32)n1-c1ccc(F)cc1	1.4	0.36	-3	-7
CS(=O)(=O)N(CC(=O)Nc1c(F)cccc1F)c1ccc(Oc2ccccc2)cc1	0.1	nt	nt	-38
C[C@@H]1CN([C@@H](C)CO)C(=O)c2cc(NC(=O)CCCCCC(=O)Nc3ccccc3N)ccc2O[C@@H]1CN(C)C(=O)Nc1ccc(C(F)(F)F)cc1	-1.0	-0.3	nt	-4
C[C@@H]1CCCCO[C@@H](CN(C)C(=O)c2ccncc2)[C@@H](C)CN([C@H](C)CO)C(=O)c2cc(NC(=O)NC3CCCCC3)ccc2O1	nt	-0.24	-4	-6

# 2 compounds drawn at random from the list so far, as already listed:
SMILES	PD-1 reversal	YB-1 expression	Hedgehog inh	MITF inhib
CSc1ccccc1NC(=O)C(C)n1nc([N+](=O)[O-])c(Br)c1C (stereo not drawn)	-1.8	nt	nt	16
C[C@@H]1CN([C@H](C)CO)C(=O)c2cccc(N(C)C)c2O[C@H]1CN(C)S(=O)(=O)c1ccc(F)cc1	nt	0.019	-8	-10

# Continued.
SMILES	PD-1 reversal	YB-1 expression	Hedgehog inh	MITF inhib
CNC[C@H]1Oc2c(NS(=O)(=O)c3ccc(C)cc3)cccc2C(=O)N([C@@H](C)CO)C[C@@H]1C	nt	-0.43	15	0
COc1nonc1NC(C)=O	0.9	-0.33	-3	-21
CO/N=C(\C(=O)N[C@@H]1C(=O)N2C(C(=O)O)=C(COC(C)=O)CS[C@H]12)c1csc(N)n1	3.5	0.52	22	6
Cc1nc(C)c(C(=O)C2C(=O)C(=O)N(CCCN3CCOCC3)C2c2ccncc2)s1 (stereo not drawn)	2.5	nt	nt	-1
C[C@H]1CN([C@@H](C)CO)C(=O)c2cccc(NC(=O)Nc3ccc(F)cc3)c2O[C@@H]1CN(C)C(=O)Nc1ccc(F)cc1	-1.6	-10	-29	-12
COc1ccc(S(=O)(=O)Nc2ccc3c(c2)C(=O)N([C@@H](C)CO)C[C@H](C)[C@@H](CN(C)Cc2ccc(C(=O)O)cc2)O3)cc1	1.7	-0.47	14	-5
COc1ccc(NC(=O)Nc2ccc3c(c2)CC(=O)N([C@H](C)CO)C[C@H](C)[C@H](CN(C)Cc2ccc(C(F)(F)F)cc2)O3)cc1	0.6	-0.0091	-47	3
COc1ccc(S(=O)(=O)N(C)C[C@H]2Oc3ccc(N(C)C)cc3C(=O)N([C@H](C)CO)C[C@H]2C)cc1	nt	-0.073	-13	-6
Cn1c(SCC(=O)N2CCc3ccccc32)nnc1-c1ccc(NC(=O)c2ccccc2Br)cc1	2.6	nt	nt	5
N#CC1=C(SCC(=O)Nc2cccc3cccnc23)NC(=O)C(C#N)C12CCCCC2 (stereo not drawn)	3.6	nt	nt	27

# Next results follow:
SMILES	PD-1 reversal	YB-1 expression	Hedgehog inh	MITF inhib
Cc1ccc(S(=O)(=O)Nc2ccc3c(c2)C(=O)N([C@H](C)CO)C[C@@H](C)[C@H](CN(C)S(=O)(=O)c2ccc(Cl)cc2)O3)cc1	1.3	0.17	nt	-10
Cc1ccc(S(=O)(=O)Nc2ccc3c(c2)C(=O)N([C@H](C)CO)C[C@H](C)[C@H](CN(C)C(=O)Nc2ccc(C(F)(F)F)cc2)O3)cc1	-1.7	0.0076	nt	13
C[C@@H]1CN([C@@H](C)CO)C(=O)c2cc(NC(=O)Cc3ccccc3)ccc2O[C@H]1CN(C)C(=O)Nc1ccccc1	0.9	-0.091	nt	7
C[C@@H]1CN([C@H](C)CO)C(=O)Cc2cc(NC(=O)Nc3ccccc3)ccc2O[C@H]1CN(C)S(=O)(=O)c1cccs1	-0.4	0.23	34	-4
C[C@@H]1CN([C@H](C)CO)C(=O)c2cc(NC(=O)Nc3ccc(C(F)(F)F)cc3)ccc2O[C@@H]1CN(C)C(=O)NC1CCCCC1	-3.0	-0.049	15	60
C[C@H](CO)N1C[C@H](C)[C@H](CN(C)CC2CCCCC2)Oc2ccc(NS(=O)(=O)c3ccc(Cl)cc3)cc2C1=O	nt	1	nt	-7
COc1ccc(CN(C)C[C@H]2Oc3c(NS(=O)(=O)c4cn(C)cn4)cccc3C(=O)N([C@H](C)CO)C[C@@H]2C)cc1	2.3	0.11	12	-13
C[C@H](CO)N1C[C@H](C)[C@@H](CN(C)Cc2ccc(C(F)(F)F)cc2)Oc2ccc(NS(=O)(=O)c3ccc(F)cc3)cc2C1=O	-5.2	-0.4	nt	-28
C[C@@H]1CN([C@@H](C)CO)C(=O)c2cccc(NC(=O)Nc3ccc(C(F)(F)F)cc3)c2O[C@@H]1CN(C)CC1CCCCC1	-12	0.067	31	-1
Cc1nc2sc3c(c2c2nnc(SCC(=O)c4ccccc4)n12)CCCC3	1.3	-0.47	12	-4
COc1ccc(-n2c(=S)[nH]c3cc(C(=O)NC4CCCC(C)C4C)ccc3c2=O)c(OC)c1 (stereo not drawn)	-0.5	-1.1	0	38
Cc1ccc(S(=O)(=O)N(C)C[C@@H]2Oc3c(NC(=O)C4CCCCC4)cccc3C(=O)N([C@@H](C)CO)C[C@@H]2C)cc1	-1.4	-0.11	104*	7

# This is a subset; count on the stated rates, not on these rows.
